# eIF4H FP inh = inhibitors of RNA binding by human eIF4H. hit rate 0.94% among 290,000. Q15056. inhibition, % at 35 µM. eIF4H fluorescence polarization binding assay;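 active = 50% or more with normal probe brightness, or confirmed in later tests; inconclusive = above 50% with abnormal brightness, or retests that disagree; inactive = below 50% or failed in later tests; about a fifth of its hits are not listed in these tables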;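 also: calls also rest on retests at 20 µM and on dose response follow-up; 0% = protein and probe with vehicle and 100% = probe without protein; strong numbers were not always called active; many hits fall short of the cut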
# Env fusion inh = inhibitors of HIV Env-mediated cell fusion. inhibition, % at 12.3 µM. hit rate 1.1% among 360,000. HeLa-JRFL Env/CEM21 cell fusion, luciferase. AID 651610;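 active = mean replicate inhibition score of at least 50 and every replicate individually at or above 50; inconclusive = only one of the two criteria met; inactive = mean below 50 and not all replicates reaching 50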;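 also: 0% = plate neutral controls and 100% = maraviroc near 300 nM; one replicate is shown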
# CSC inhib = cancer stem cell inhibition | cancer stem cell-like cells viability, luminescence | inhibition, % at 7.5 µM | hit rate 1.1% among 300,000 | AID 2717;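 active = mean at 75% or more and at least half the replicates too; inconclusive = mean and replicates disagree; tested in HMLE shEcad cells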;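 also: 0% = median of negative and 100% = median of positive control wells; the first replicate is given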
# PABP polyA inh = PABP-poly(A) binding inhibition; AID 2014; inhibition, % at 35 µM; hit rate 1% among 290,000; PABP-poly(A) RNA binding, fluorescence polarization; P11940;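 active = 50% or more with normal probe brightness, or confirmed in later tests; inconclusive = above 50% with abnormal brightness, or retests that disagree; inactive = below 50% or failed in later tests; about a fifth of its hits are not listed in these tables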;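 also: calls also rest on retests at 20 µM and on dose response follow-up; controls were probe without protein and protein plus probe with vehicle; some compounds called inactive have numbers as strong as hits; many hits fall short of the cut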
# Target sequence (P11940 whole entry, looked up): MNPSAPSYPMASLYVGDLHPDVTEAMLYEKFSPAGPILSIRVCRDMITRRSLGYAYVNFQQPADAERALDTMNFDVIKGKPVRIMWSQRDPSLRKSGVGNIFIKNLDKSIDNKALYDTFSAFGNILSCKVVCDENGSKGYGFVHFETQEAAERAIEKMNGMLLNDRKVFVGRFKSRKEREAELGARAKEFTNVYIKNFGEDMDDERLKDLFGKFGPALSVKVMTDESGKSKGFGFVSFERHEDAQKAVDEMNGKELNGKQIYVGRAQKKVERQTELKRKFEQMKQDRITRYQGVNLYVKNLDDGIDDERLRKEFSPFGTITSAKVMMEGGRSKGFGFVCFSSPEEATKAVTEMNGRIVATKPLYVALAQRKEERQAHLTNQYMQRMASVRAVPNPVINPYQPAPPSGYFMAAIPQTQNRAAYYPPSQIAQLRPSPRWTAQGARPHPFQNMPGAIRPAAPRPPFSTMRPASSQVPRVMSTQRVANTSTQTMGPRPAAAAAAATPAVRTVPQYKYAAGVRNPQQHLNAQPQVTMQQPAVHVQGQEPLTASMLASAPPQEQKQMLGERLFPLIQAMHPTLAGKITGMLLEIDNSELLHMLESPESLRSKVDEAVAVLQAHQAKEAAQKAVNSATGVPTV
# UUG fidelity = modulators of start codon recognition fidelity in yeast; S. cerevisiae UUG-firefly luciferase reporter, luminescence/redox ratio; activity score, % at 18.7 µM; hit rate 0.13% among 350,000; AID 602363;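 active = replicate mean at a twofold rise or more, about +100% in these data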;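 also: firefly luciferase made from a UUG start codon reports start codon fidelity; reporter light over untreated wells divided by growth signal over untreated wells; some hits fall short of that in this replicate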
# MT1-MMP act inh = blocks activation of human MT1-MMP | GFP/RFP ratio change, % at 20 µM | HT1080 RFP-PRO-GFP cells, GFP/RFP ratio fluorescence, overnight; percent of plate control window, DMSO zero | hit rate 0.061% among 360,000 | P50281;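 active = GFP/RFP ratio change of at least 30% with cell ATP level not reduced by more than half and red fluorescence within 50% of control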; also: strong numbers were not always called active
#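 Assay system: HT1080 RFP-PRO-GFP cells. Benchmarks: DMSO vehicle wells and RFP-L50D-GFP reporter cell wells. Times: overnight cell settling, then overnight compound exposure, 37 °C, 5% CO2. Compound: 20 µM single dose, 1% DMSO. Read-out basis: GFP/RFP fluorescence ratio.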
# Rce1 inhib = blocks yeast Ras-converting enzyme; calls only; yeast membranes, quenched prenylated peptide cleavage fluorescence; AID 2563; hit rate 0.27% among 290,000; Q03530;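 active = fall in fluorescence gain of 50% or more versus controls, with final raw signal at or below 3038400; inconclusive = same 50% fall but final raw signal above 3038400; inactive = fall in fluorescence gain under 50%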;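 also: plate controls were neutral control wells for no effect and wells lacking membranes for full effect; tested at 10 µM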
# eIF4H FP inh retest = further read-out of eIF4H FP inh, marked with its call; inhibition, %; compound at 20 µM; confirmation average;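 mean of two retest wells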
# PABP polyA inh retest = recorded beside PABP polyA inh, whose call it bears; inhibition, %; compound at 20 µM; confirmation repeats;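 mean of two retest wells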
# MT1-MMP act inh RFP = also measured in MT1-MMP act inh; calls as there; RFP signal change, %; measured here: RFP expression control read;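 0 = vehicle wells; hits needed this value within 50% of zero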
# * = called active by the depositor; i = inactive; ? = inconclusive; / = no result given; + = active, no number; & = joins results of further samples; [ ] = another dose, or the depositor's remark. Rows were taken by chance. Share with any hit: about 2.9%.
SMILES,eIF4H FP inh,Env fusion inh,CSC inhib,PABP polyA inh,UUG fidelity,MT1-MMP act inh,MT1-MMP act inh RFP,Rce1 inhib,others
COc1ccc(CCNC(=O)CN2CCN(c3cccc(Cl)c3)CC2)cc1OC,-2,27,-3,-18,10,-3,-2,i,
O=c1[nH]c2ccc(NC(=S)Nc3ccc(Cl)cc3Cl)cc2[nH]1,1,8,-7,9,-10,3,-1,i,
O=C(COC(=O)c1ccc([N+](=O)[O-])s1)NNC(=O)c1ccccc1,/,/,12,/,-6,-3,5,/,
CCOC(=O)N1CCC(NC(=O)CCc2ccccc2)CC1,-4,-4,-7,3,-2,1,2,i,
O=C(NCc1ccco1)c1cccc(N2CCCC2=O)c1,-4,-21,/,3,1,13,3,i,
C/C(N)=C(/C#N)C(=O)CSc1nc2ccccc2n1CC(C)C,-13,12,-8,?,/,2,2,i,
O=C(CSc1nnc(Cc2ccc(Cl)cc2)o1)Nc1ccccc1,-2,5,-8,6,/,2,4,i,
COc1ccc(CNC(=O)c2ccc(Br)s2)cc1OC,5,7,6,1,-13,0,-5,i,
Cc1cccc[n+]1CC(=O)c1ccc(Cl)cc1,/,-28,4,/,-12,-7,-5,i,
CCN1C(=O)CC(N2CCOCC2)C1=O (stereo not given),2,17,-3,1,-14,-4,-5,i,
CN(C)S(=O)(=O)N1CCN(c2ccnc3cc(Cl)ccc23)CC1,60,/,-15,9,-12,2,-2,i,eIF4H FP inh retest=-8;PABP polyA inh retest=4
OCCCn1c(CCNc2nc(-c3ccc(Cl)cc3)cs2)nc2cc(C(F)(F)F)ccc21,/,27,78*,/,-17,6,0,i,
CCOC(=O)C[N+](CC)(CC)CC#Cc1ccccc1,-1,/,-4,1,/,-5,-5,i,
Cc1nc2cc(NC(=O)NCc3ccccc3)ccc2o1,-5,/,8,9,-6,-3,0,i,
O=C(c1nc2nc(-c3cccs3)cc(C(F)(F)F)n2n1)N1CCN(Cc2ccccc2)CC1,16,/,-17,8,12,-3,-4,i,
CC(=O)c1cc(C(=O)N2CCc3c([nH]c4ccccc34)C2C2CCCCC2)[nH]n1 (stereo not given),-11,28,-5,-4,/,-6,1,i,
CN(C)c1ccc(CN(C(=O)c2ccco2)C2CCS(=O)(=O)C2)cc1 (stereo not given),4,-38,-9,8,-9,1,4,i,
N#Cc1cccc2c1-c1ccccc1/C2=N/NC(N)=O,6,/,/,1,-16,4,7,i,
COc1cc(C(=O)NNC(=S)NC(=O)c2ccc(F)cc2)cc(OC)c1OC,17,1,13,-1,/,5,2,i,
Cc1ccc(NC(=O)CN2CCCC2)c2c1CC(C)(C)O2,-8,-34,-8,0,/,-2,7,i,
COc1ccc2c(c1OC)C(=O)OC2CC(=O)c1ccc2c(c1)OCO2 (stereo not given),0,-50,-3,27,/,-2,2,i,
Cc1cnc(NC(=O)CCNC(=O)c2ccccc2Cl)s1,-3,5,-20,-8,-1,1,3,i,
O=C(Nc1nc2cc3c(cc2s1)OCO3)c1ccc(N2C(=O)CCC2=O)cc1,-8,2,-1,-16,-8,-1,6,i,
CCC1COC(c2cccn2Cc2ccccc2Cl)=N1 (stereo not given),-3,8,0,-8,-7,0,0,i,
CCOC(=O)c1cc2sc(C)cc2n1CC(=O)Nc1cccc(C)c1C,-5,/,23,-4,/,4,2,/,

# 3 entries picked at random from the list so far:
SMILES,eIF4H FP inh,Env fusion inh,CSC inhib,PABP polyA inh,UUG fidelity,MT1-MMP act inh,MT1-MMP act inh RFP,Rce1 inhib,others
CCN1C(=O)CC(N2CCOCC2)C1=O (stereo not given),2,17,-3,1,-14,-4,-5,i,
Cc1cccc[n+]1CC(=O)c1ccc(Cl)cc1,/,-28,4,/,-12,-7,-5,i,
Cc1cnc(NC(=O)CCNC(=O)c2ccccc2Cl)s1,-3,5,-20,-8,-1,1,3,i,

# Gathered by group: the entries above containing four or more nitrogen atoms
SMILES,eIF4H FP inh,Env fusion inh,CSC inhib,PABP polyA inh,UUG fidelity,MT1-MMP act inh,MT1-MMP act inh RFP,Rce1 inhib,others
O=c1[nH]c2ccc(NC(=S)Nc3ccc(Cl)cc3Cl)cc2[nH]1,1,8,-7,9,-10,3,-1,i,
C/C(N)=C(/C#N)C(=O)CSc1nc2ccccc2n1CC(C)C,-13,12,-8,?,/,2,2,i,
CN(C)S(=O)(=O)N1CCN(c2ccnc3cc(Cl)ccc23)CC1,60,/,-15,9,-12,2,-2,i,eIF4H FP inh retest=-8;PABP polyA inh retest=4
OCCCn1c(CCNc2nc(-c3ccc(Cl)cc3)cs2)nc2cc(C(F)(F)F)ccc21,/,27,78*,/,-17,6,0,i,
O=C(c1nc2nc(-c3cccs3)cc(C(F)(F)F)n2n1)N1CCN(Cc2ccccc2)CC1,16,/,-17,8,12,-3,-4,i,
CC(=O)c1cc(C(=O)N2CCc3c([nH]c4ccccc34)C2C2CCCCC2)[nH]n1 (stereo not given),-11,28,-5,-4,/,-6,1,i,
N#Cc1cccc2c1-c1ccccc1/C2=N/NC(N)=O,6,/,/,1,-16,4,7,i,

# 4 neighbouring records already listed, quoted:
SMILES,eIF4H FP inh,Env fusion inh,CSC inhib,PABP polyA inh,UUG fidelity,MT1-MMP act inh,MT1-MMP act inh RFP,Rce1 inhib,others
COc1ccc(CCNC(=O)CN2CCN(c3cccc(Cl)c3)CC2)cc1OC,-2,27,-3,-18,10,-3,-2,i,
O=c1[nH]c2ccc(NC(=S)Nc3ccc(Cl)cc3Cl)cc2[nH]1,1,8,-7,9,-10,3,-1,i,
O=C(COC(=O)c1ccc([N+](=O)[O-])s1)NNC(=O)c1ccccc1,/,/,12,/,-6,-3,5,/,
CCOC(=O)N1CCC(NC(=O)CCc2ccccc2)CC1,-4,-4,-7,3,-2,1,2,i,

# (cont.)
SMILES,eIF4H FP inh,Env fusion inh,CSC inhib,PABP polyA inh,UUG fidelity,MT1-MMP act inh,MT1-MMP act inh RFP,Rce1 inhib,others
CCC1S/C(=C(\C#N)C(=O)NCc2ccco2)N(c2ccc(F)cc2)C1=O (stereo not given),27,/,-10,28,-5,-3,5,i,
O=C(Cc1cccc(NC(=O)C2CCN(C(=O)c3ccccc3)CC2)c1)Nc1cccc(C(=O)N2CCCC2)c1,/,-28,12,/,-8,7,13,/,
CCN1CCCC1CNCc1ccc(Cl)cc1Cl (stereo not given),2,/,21,20,/,18,6,/,
O=C(CN1CCN(Cc2ccc(Cl)cc2)C1=O)NCCN1CCCC1,3,0,-5,2,-6,1,6,i,
COc1ccc(C(=O)Nc2ccc3nc(C)c(C)nc3c2)cc1,-2,-20,-7,-11,-11,5,0,i,
O=C(NCc1ccccc1)NC1(C(=O)N2CCCC2)CCCCC1,-4,-29,-13,3,-7,11,3,/,
C[C@@H]1CN([C@H](C)CO)C(=O)c2cc(-c3ccc(F)cc3)cnc2O[C@H]1CN(C)C(=O)c1ccc(F)cc1,/,8&-12[16.7 µM],/,/,18&4&0,4,7,/,
COc1ccc(CNC(=O)C2CSC(c3ccc(OC)cc3)N2C(C)=O)cc1 (stereo not given),3,-18,-4,8,-15,-1,-7,i,
COc1ccccc1OCc1nnc(SCC(=O)Nc2nnc(C3CC3)s2)n1C,-2,9,-14,-1,-12,3,4,i,
COc1ccc(C(=O)N/N=C/c2ccc(N(C)c3ccccc3)cc2)cc1,/,5,16,/,-19,3,-13,i,
OCC1OC(c2ccccc2)OC2COC(c3ccccc3)OC12 (stereo not given),/,-6,/,/,-8,3,-3,/,
CC(=O)c1cn(CCOc2ccccc2C)c2ccccc12,-4,2,2,-6,-15,5,-32,i,
O=C(Nc1cccnc1)C1COc2ccccc2O1 (stereo not given),-2,/,1,-10,-16,12,2,i,
O=C(O)CCC(=O)N1N=C(c2ccccc2)CC1c1ccc(Br)cc1 (stereo not given),-12,4,-10,-2,-8,-1,2,i,
C=C(C)C(=O)Oc1ccc(N2C(=O)[C@@H]3C4C=CC(C4)[C@@H]3C2=O)cc1,24,3,0,9,-15,0,1,i,
CCCCC(CC)C(=O)Nc1cc(C(=O)NCc2ccc(C)cc2)ccc1N1CCC2(CC1)CC(c1ccccc1)=NO2 (stereo not given),13,24,-7,-2,-15,0,-1,i,
CN(Cc1cccs1)c1ncnc2sccc12,0,70*,-10,10,/,0,-11,i,
O=C(NCCCn1ccnc1)Nc1ccc(Cl)cc1Cl,-7,/,5,-10,-23,3,6,i,
COc1ccc(NC(=O)c2cc(S(=O)(=O)NCC3COc4ccccc4O3)ccc2F)cc1 (stereo not given),1,14,-1,-3,-9,-1,-2,i,
O=C(CSc1nnc(-c2ccccc2)n1-c1ccc(Cl)cc1)NNC(=S)Nc1ccccc1,-8,0,-2,8,/,1,3,i,
Nc1ccc(Cc2ccc(N)c(C(=O)O)c2)cc1C(=O)O,-2,/,-9,6,-6,1,7,+,
CCN(CC)CCOc1ccccc1C(C)=O,13,-4,-10,10,-15,11,7,i,
CC(=O)c1ccc(S(=O)(=O)N2CCN(CCOc3ccccc3)CC2)cc1,/,15,1,/,-1,1,-15,/,
Cc1cccc(N2C(=O)/C(=C\c3ccc(OC(F)F)cc3)c3ccccc3C2=O)c1,9,/,10,17,/,-3,2,i,
O=S(=O)(c1ccc(-c2nnc(SCc3nnc(-c4ccccc4)o3)o2)cc1)N1CCCC1,0,-29,-16,-6,-12,5,-6,i,

# Next entries follow:
SMILES,eIF4H FP inh,Env fusion inh,CSC inhib,PABP polyA inh,UUG fidelity,MT1-MMP act inh,MT1-MMP act inh RFP,Rce1 inhib,others
O=C(C[n+]1ccc(/C=N/O)cc1)N1CCCCC1,2,1,0,-3,/,-1,1,i,
O=C(Nc1ccc(N2CCCCC2)c(S(=O)(=O)Nc2ccccc2Cl)c1)c1cccnc1,/,19,63,/,-7,1,-15,/,
COc1cc(/C=C2\SC(=S)N(CC(=O)Nc3ccc(O)cc3)C2=O)cc(OC)c1OC,16,23,/,?,/,10,3,i,
c1ccc(Oc2cccc(OCCCCN3CCCC3)c2)cc1,15,-11,59,?,/,-2,1,i,
CCN(CC)c1ccc(C(=O)NC(=S)Nc2cc(S(=O)(=O)N3CCOCC3)ccc2-n2cncn2)cc1,-5,-36,-2,5,/,-1,4,i,
CCOc1ccc(C(CC(=O)O)NC(=O)CCCOc2ccc(Cl)cc2C)cc1 (stereo not given),0,2,-5,18,-12,1,4,i,
CCSc1ncc(CO)c(N)n1,4,-4,-8,7,-13,-4,-1,i,
CN(C(=O)COC(=O)C1COc2ccccc2O1)C1(C#N)CCCCC1 (stereo not given),/,/,-12,/,-10,-4,1,/,
O=C(NCC(=O)N(c1ccccc1F)C(C(=O)NC1CCCC1)c1ccco1)c1ccco1 (stereo not given),-3,10,-1,7,/,1,0,i,
Cc1ccc(OCC2Cn3c(nc4c3c(=O)[nH]c(=O)n4C)O2)cc1C (stereo not given),-2,3,11,6,-3,-1,-3,i,
O=C(OCC(=O)N1CCCc2ccccc21)c1ccccc1[N+](=O)[O-],/,9,20,/,-16,8,4,i,
O=C(COc1ccccc1F)Nc1cc(S(=O)(=O)Nc2cccc(Cl)c2)ccc1O,/,5,/,/,-17,7,-11,/,
CCCCC(=O)Nc1ccccc1N1CCOCC1,-3,17,-2,-3,/,1,6,i,

# Assay outcomes from PubChem BioAssay.
